gsp ag: agonists of gsp mutant (McCune-Albright syndrome) | 340,000 tested, 0.13% active | gsp mutant cells, cAMP HTRF, 30 min; control for the full effect not named in the record | AID 624287 | Potency, µM (series often up to 76.9 µM), inactives show at the highest dose activation (cAMP increase), hits mostly activators; active = well fitted activation curve with a large enough effect; inconclusive = small, poorly fitted or top-dose-only effect, or another doubt; inactive = no such curve, though single readings can be large or run the other way; cell line not stated here;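 further: phosphodiesterase inhibitor Ro 20-1724 added with compounds to block cAMP breakdown; potency means the concentration at half of the fitted maximal effect; nearly all actives have a fitted effect of over 60% in size; about a fifth of the inactives were tested at one dose only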
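Cells stably selected in G418 were plated at 2000/well, grown 16-24 hr, then given compounds in DMSO with the PDE inhibitor […] (300 uM solution added) for 30 min at 37C; cAMP was read by HTRF.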
gsp antag: antagonizes gsp, the McCune-Albright syndrome mutation; Potency, µM (series often up to 76.9 µM), for inactives: at the top dose activity change, negative = inhibition, hits mostly inhibitors; gsp-mutant cells, cAMP HTRF, 30 min; control for the full effect not named in the record; 340,000 tested, 0.4% active; active = falling curve of any shape with a large fitted effect; inconclusive = falling curve, mostly with a smaller effect; inactive = flat or rising curve; cell line not stated here;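 further: intracellular cAMP measured with PDE inhibitor Ro 20-1724 present during compound exposure; potency means the concentration at half of the fitted maximal effect; on the % scale 0 is the no-effect control and ±100 the full control effect; nearly all actives have a fitted effect of over 65% in size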
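G418-selected cells were plated in DMEM/10% FBS for 16-24 h at 37C, then treated with compounds plus the PDE inhibitor […] (300 uM solution added) for 30 min at 37C. Intracellular cAMP was measured by HTRF after 30 min lysis at room temperature.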
ClpP mod: qHTS Assay for Activators of ClpP | 340,000 tested, 1.9% active | AID 651965, 2013 | purified B. subtilis ClpP, FRET peptide cleavage, 20 min | Potency, µM (titrated, usually from 57.5 µM), inactives show at the highest dose activity change, negative = active | ATP-dependent Clp protease proteolytic subunit (Bacillus subtilis (strain 168)), P80244; active = well fitted falling curve with a large enough effect; inconclusive = small, poorly fitted or top-dose-only effect; inactive = no such curve, though single readings can be large or run the other way; further: potency means the concentration at half of the fitted maximal effect; the source files actives as falling curves though it sought activators and does not explain the sign; nearly all actives have a fitted effect of over 65% in size; many hits overshoot -100%
Target sequence (P80244 whole entry, looked up): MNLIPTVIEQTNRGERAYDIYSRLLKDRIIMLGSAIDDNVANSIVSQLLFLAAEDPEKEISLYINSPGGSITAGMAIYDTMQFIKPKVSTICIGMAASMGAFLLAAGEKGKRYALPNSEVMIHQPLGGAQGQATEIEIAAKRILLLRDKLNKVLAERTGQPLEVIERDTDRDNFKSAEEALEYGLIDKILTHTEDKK
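ClpP 10 microg/mL final, pH 8 Tris/KCl buffer with BSA, glycerol, Tween-20; compound pinned in; FRET-FV substrate; RT 20 min; Ex320/Em430; ΔFRET vs ADEP 5.8 microM, DMSO, no enzyme.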
Sfp inh: inhibitors of Bacillus subtilis Sfp phosphopantetheinyl transferase. AID 1490. Biochemical Sfp PPTase activity, qHTS. Potency, µM, without a hit: max response, negative = inhibition, hits mostly inhibitors. 310,000 tested, 3.5% active; active means well fitted inhibition curve with a large enough effect; inconclusive means small, poorly fitted or top-dose-only effect, or another doubt; inactive means no such curve, though single readings can be large or run the other way;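 further: the enzyme is Sfp with the accession as filed and its product quenches rhodamine fluorescence; potency means the concentration at half of the fitted maximal effect; 0% = enzyme reaction without inhibitor and -100% = no enzyme wells; top concentration of the series not given in the record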
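Fluorescence-quenching assay: 15 nM Sfp-PPTase preincubated 15 min at room temperature with compound, then 5 uM rhodamine-CoA and 12.5 uM BHQ-2-labelled YbbR peptide added. Fluorescence (ex 525/em 598 nm) read at start and after 30 min; difference gives rate.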
PINK1 expr mod: changes PINK1 expression; PINK1 immunofluorescence, high-content cytometry, 24 h; AID 624263; 410,000 tested, 0.2% active; Potency, µM (top dose mostly 76.6 µM), for the others: at the top dose activation (PINK1 increase), actives largely listed as activators; active = well fitted activation curve with a large enough effect; inconclusive = small, poorly fitted or top-dose-only effect; inactive = flat fitted curve, though single readings scatter; cell line not stated here;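 further: potency means the concentration at half of the fitted maximal effect; % of control where 0% means no effect; nearly all actives have a fitted effect of over 65% in size; a mitochondrial uncoupler was the plate control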
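Stable cell line, 250 cells/well, 12 h attachment; compounds pinned at 5 concentrations, 24 h; CCCP control. Fixed with nuclear dye, primary antibodies 12 h at 10 degrees C, secondary plus cell stain; laser-scanning cytometer read.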
Menin-MLL FL inh: inhibitors of human menin-MLL interaction, wild-type MLL peptide | AID 1766 | FP activity change, % at 61.4 µM | Fluorescence polarization, fluorescein-MLL peptide displacement from menin | 290,000 tested, under 10 active; inconclusive = falling polarisation curve, or a change in total fluorescence; inactive = total fluorescence flat and polarisation flat or rising; no compound was filed as active; the % refers to the polarisation; negative = inhibition;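 further: % of control where 0% means no effect; inhibitors lower the polarisation; unlabelled MLL peptide was the positive control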
D2 agonist: agonists of human D2 dopamine receptor (beta-arrestin); 360,000 tested, 0.084% active; DiscoveRx PathHunter D2 beta-arrestin, luminescence, 90 min; 100% = 57 uM dopamine signal; activation, % (no concentration beside the values); in the data active = activation above about 40%; inconclusive = about 15% to 40%; inactive = below about 15%; further: compound concentration not given in the record; the text of the record calls up to 30% inactive
Target sequence (P14416 whole entry, looked up): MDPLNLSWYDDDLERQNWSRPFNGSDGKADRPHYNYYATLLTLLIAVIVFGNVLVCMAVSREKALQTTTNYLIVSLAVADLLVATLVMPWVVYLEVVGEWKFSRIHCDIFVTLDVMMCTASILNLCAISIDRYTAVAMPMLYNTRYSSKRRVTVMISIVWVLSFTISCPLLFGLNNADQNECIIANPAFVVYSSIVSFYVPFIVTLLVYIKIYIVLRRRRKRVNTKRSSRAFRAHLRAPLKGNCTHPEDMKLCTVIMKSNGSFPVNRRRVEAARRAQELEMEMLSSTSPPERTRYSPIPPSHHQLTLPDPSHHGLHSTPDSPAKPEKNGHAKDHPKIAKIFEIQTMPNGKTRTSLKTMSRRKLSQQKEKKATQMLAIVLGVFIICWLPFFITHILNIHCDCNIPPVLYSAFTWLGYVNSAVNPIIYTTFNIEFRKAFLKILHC
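Agonist mode: compounds alone added to overnight-plated D2 PathHunter cells for 90 min at 37 C, with 57 uM final dopamine (EC100) defining full response. Beta-arrestin recruitment detected by chemiluminescent reagent, read after 1 h at ambient temperature.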
The depositor's hits bear a star; ? = inconclusive; / = not tested or not shown; & = joins results of further samples; [ ] = another dose, or the depositor's remark. Outcome played no part in choosing rows; 5.1% or so of the library scored in one or more.

SMILES	gsp ag	gsp antag	ClpP mod	Sfp inh	PINK1 expr mod	Menin-MLL FL inh	D2 agonist
CN(C)CCNC(=O)c1cccc(-c2cnc3c(NC=O)cc(-c4ccccc4F)cn23)c1	/	/	-5.9%	/	1.7%	/	14
CC(CCc1ccco1)NC(=O)Cn1ncc2c1-c1ccccc1OC2 (stereo unspecified)	0%	-8%	-12%	50µM*	-0.5%	2.6	-4.3
C/C(N)=N\S(=O)(=O)c1ccc(Cl)cc1	-14%	5%	1.1%	11%	1.0%[38.3 µM]	0.0	-1.5
CC(C)NC(=O)CC(=O)N/N=C/c1ccc(F)cc1	-33%[inhibitor]	5%	-0.1%	9%	15%[38.3 µM]	-3.3	-0.9
O=C1CSC(c2ccc(Cl)cc2)N1Nc1nc(N2CCOCC2)nc(N2CCOCC2)n1 (stereo unspecified)	2%	-11%	/	5%	-4.4%	0.9	3.8
CCOc1ccc(CCNC(=O)c2ccc(CNS(=O)(=O)c3ccccc3)cc2)cc1OCC	-34%[inhibitor]	-11%	0.6%	-21%	1.4%	1.4	3.4
O=C(N/N=C/c1ccncc1)c1cc(C2CC2)nc2ccccc12	1%[15.4 µM]	-4%	/	7%	1.4%	0.3	-0.6
C#CCOCCOCCOCCNc1nc(N2CCN(C(=O)[C@H](CCCN=C(N)N)n3cc(C(N)[C@@H](C)CC)nn3)CC2)nc(N2CCN(C(=O)[C@H](CCC(=O)O)n3cc([C@@H](N)CO)nn3)CC2)n1 (stereo partly specified)	/	10%	-3.6%	/	-0.5%	/	-3.9
C=C(C)COc1ccc2c(C)c(CCC(=O)N3C[C@H]4C[C@@H](C3)c3cccc(=O)n3C4)c(=O)oc2c1	/	-17%	4.8%	7%	0.1%	-7.7	5.6
CC(C)(C)c1ccc(C(=O)OCC(=O)Nc2sc3c(c2C#N)CCC3)cc1	-50%[inhibitor]	6%	-3.5%	-18%	18%	2.1	-4.8
CN(C)C(=O)CSc1nc2ccc(N3C(=O)c4ccccc4C3=O)cc2s1	0%	-10%	-0.4%	0%	0.3%	0.3	-3.8
CN(C)S(=O)(=O)c1ccc(C(=O)NCC(=O)N/N=C/c2cccs2)cc1	27%	3%	0.4%	-4%	-0.7%	0.4	3.5
COc1ccccc1OCc1ccc(C(=O)NCc2ccco2)o1	2%	-3%	-4.7%	-5%	-1.5%[38.3 µM]	-0.9	-0.9
C[C@@]12CCC=C[C@H]1[C@H](c1ccc(/C=C/c3ccccc3)cc1F)N(Cc1ccccc1)C2=O	32%	-8%	4.1%	4%	18%	2.7	-3.1
CC(SCc1ccccc1)C(=O)N/N=C/c1ccc2c(c1)OCO2 (stereo unspecified)	?	3%	-1.1%	-11%	-0.4%	0.1	-3.2
CCOC(=O)[C@@H]1[C@H]2COc3ccc(Br)cc3[C@@H]2N2C(=O)N(c3ccc(F)cc3)C(=O)[C@]12C	/	-3%	-3.9%	15%	-0.2%	-0.3	-3.6
CCN1CCN(CCCNC(=O)c2ccc3c(c2)N(Cc2ccc(C)cc2)CCS3)CC1	?	18%	3.9%	-8%	-0.7%	/	-4.6
Cc1ccccc1NC(=O)c1ccccc1NC(=O)c1ccco1	3%	-4%	-5.1%	2%	-1.2%	-1.2	-1.8
COc1ccc(N2CCN(C(CNC(=O)C(=O)NC3CC3)c3ccco3)CC2)cc1 (stereo unspecified)	-15%[15.4 µM]	11%	0.3%	/	2.4%	/	1.8
CCC(=O)N1CCC1(C)C(=O)Nc1cccc(Oc2ccccc2)c1 (stereo unspecified)	/	/	-3.0%	/	2.0%	/	-4.4
Nc1ccc(CCn2ccnc2)cc1	-27%	5%	/	24%	6.1%	-0.1	4.4
CC1CCN(S(=O)(=O)N2CCCC(C(=O)NCc3ccc(F)cc3)C2)CC1 (stereo unspecified)	-23%[15.4 µM]	4%	/	5%	-0.2%	/	-1.4
C[C@]12C(=O)N(c3ccc(Br)cc3)C(=O)N1[C@H]1c3ccccc3OC[C@@H]1[C@H]2c1ccccc1	-5%	13%	-0.4%	/	2.6%	/	-2.0
CC(=O)Nc1ccc(NC(=O)CSc2nnc(C)c(=O)n2N)cc1	-27%[15.4 µM]	-1%	/	12%	0.3%	0.8	-3.6
CC(C)NC(=S)N/N=C/C1=CCC2CC1C2(C)C (stereo unspecified)	-1%	-5%	-1.2%	1%	?	2.3	-1.8
SMILES	gsp ag	gsp antag	ClpP mod	Sfp inh	PINK1 expr mod	Menin-MLL FL inh	D2 agonist
COc1cc(CC(=O)NCC(C)(C)N2CCOCC2)cc(OC)c1OC	3%[15.4 µM]	10%	/	20%	0.4%	1.2	1.6
CCCc1cc(=O)[nH]c(SCCOc2ccc(OCC)cc2)n1	-47%[inhibitor]	10%	-3.2%	9%	2.2%	-1.3	-2.8
COc1cccc(NC(=O)NC2CCCCCCC2)c1	-25%	-11%	-2.4%	-14%	-0.1%	-0.4	-4.0
O=C1OCCC1Sc1nc2ccccc2c(=O)n1Cc1ccccc1 (stereo unspecified)	5%[15.4 µM]	-8%	/	4%	-0.9%	-2.9	-2.9
CC/C(O)=C1\C(=O)CC(C)(C)CC1=NCCc1nc2ccccc2[nH]1	3%	-6%	-2.2%	26%	2.0%	-0.3	1.5
O=P(Cc1ccncc1)(c1ccccc1)c1ccccc1	-87%[inhibitor]	4%	0.6%	8%	0.2%	-1.1	0.2
CCOC(=O)Nc1sc(=S)n(C)c1C	-19%	1%	0.3%	16µM*	2.9%[38.3 µM]	2.4	-0.1
COc1ccc(CNC(=S)Nc2ccc(Br)cc2)cc1	0%[15.4 µM]	-8%	-0.7%	8%	3.6%	-0.6	-6.2
CC(NC(=O)c1cncc(Br)c1)c1ccc(S(N)(=O)=O)cc1 (stereo unspecified)	-32%[inhibitor]	8%	-0.6%	9%	2.3%	2.5	0.9
Cc1cc(C(=O)c2ccc3ccccc3c2)c(C)o1	-28%	7%	-3.1%	/	6.4%	/	-1.4
CC1(C)SC(=Nc2ccccc2)N(S(=O)(=O)c2ccccc2)C1=O	-1%	10%	2.5%	34%[activator]	19%	-1.4	-2.5
COc1cc(-c2nnc(SCc3cccnc3)n2C)cc(OC)c1O	13%	10%	0.4%	2%	12%[38.3 µM]	-1.9	1.5
C=CCn1c(C)nnc1SCC(=O)Nc1nc(C)c(C(=O)N(C)C)s1	22%	5%	-1.1%	7%	0.4%	/	-1.3
O=C(CO/N=C/c1ccc(OC(F)F)cc1)NCc1cccs1	18%	1%	0.8%	-6%	-2.0%	0.6	2.0
CN(C)S(=O)(=O)c1ccc(Cl)c(C(=O)Nc2cccc([N+](=O)[O-])c2)c1	?	-5%	-0.2%	14%	1.6%	-4.3	0.6
CCC1CCCCN1C(=O)CSc1nnc(CNC(=O)c2cc(OC)c(OC)c(OC)c2)o1 (stereo unspecified)	6%	-5%	-1.0%	0%	0.1%	-0.8	-2.2
O=C(Cc1ccc(Br)cc1)OCC(=O)c1ccc[nH]1	-4%[15.4 µM]	8%	4.6%	/	-0.7%	/	2.4
CCOC(=O)c1ccc(NC(=O)c2nc[nH]c2C(=O)N[C@@H](C)C(=O)OC(C)(C)C)cc1	-1%	-23%	-16%	15%	1.7%	-0.6	-3.5
CC(C)CN(Cc1c(O)ccc2ccccc12)CC(C)C	-4%[15.4 µM]	13%	/	5%	1.1%	1.4	0.4
Cc1cccc(NC(=O)c2sc3nc(-c4ccc(F)cc4)cn3c2C)n1	20%	?	-14%	50µM*	20%	?	-3.6
CCOC(=O)N1CCN(S(=O)(=O)c2ccc3c(c2)CCN3C(=O)C2CC2)CC1	16%	1%	0.7%	17%	-0.7%	3.2	-3.6
CCOC(=O)C1(C)CCN1C(=O)c1ccc(N(C)C)cc1 (stereo unspecified)	/	/	-6.8%	/	0.3%	/	-4.6
Cc1ccc(CNC(=O)c2ccc(Cl)c(S(=O)(=O)N3CCCCC3)c2)cc1	-70%[inhibitor]	-10%	-0.7%	/	1.1%	/	-1.5
COc1ccc(CCNC(=O)COc2ccc(C)nc2[N+](=O)[O-])cc1	-22%	3%	-3.4%	-10%	2.1%	-2.6	0.0
COC(=O)c1sc(NC(=O)CSc2nnc(C(C)C)n2C)nc1C	11%	4%	0.1%	13%	-0.8%	-1.5	-5.2
SMILES	gsp ag	gsp antag	ClpP mod	Sfp inh	PINK1 expr mod	Menin-MLL FL inh	D2 agonist
CCOC(=O)/C(=C/c1ccc(F)cc1)NC(C)=O	8%[15.4 µM]	8%	2.8%	22%	1.5%	2.4	0.6
CCn1c(Cc2c(C)[nH]c3ccccc23)nnc1SCC(=O)NCc1ccco1	-1%	7%	1.3%	14%	-0.6%	1.0	-1.2
Cc1nn(-c2ccccc2)c(N)c1C1(O)C(=O)Nc2ccccc21 (stereo unspecified)	-19%	4%	-1.0%	20%	-0.7%	-0.1	-5.2
O=C(Nc1cccc(Cl)c1Cl)c1ccco1	-13%	/	0.2%	/	2.6%	/	-1.5
CCCCCn1c(=S)[nH]c2ncccc2c1=O	3%[15.4 µM]	8%	1.0%	17%	2.8%	-4.0	-1.3
O=C(CCc1ccccc1F)N1CCN(c2ccccc2)CC1	?	-7%	-1.5%	17%	1.3%	0.4	5.5
COc1cc(O)c2c(=O)cc(-c3ccccc3)oc2c1	/	-8%	-6.0%	14%&12%	-0.2%	-1.5&-1.0	-8.9
CCC(=O)N(Cc1ccco1)c1nc(-c2ccc(OC)cc2)cs1	7%	1%	-1.9%	9%	10%	0.7	-1.1
Cc1cc(C)cc(NC(=O)Nc2ccc3c(c2)CCC3)c1	-55%[inhibitor]	0%	-2.8%	18%	13%	/	-0.1
Cc1c(CC(=O)N2C[C@H]3C[C@@H](C2)c2cccc(=O)n2C3)c(=O)oc2cc3occ(C(C)(C)C)c3cc12	/	-23%	5.0%	17%	-0.9%	-11	-6.4
C/C(=C\c1ccc(C)o1)C(=O)c1c(C)cc(C)[nH]c1=O	0%	4%	-1.7%	32µM*	0.8%	4.8	-2.8
CN(C)C(=O)CSc1nc(-c2cccs2)c(-c2cccs2)[nH]1	-11%[15.4 µM]	-19%	/	18%	1.3%	0.2	0.7

Source: PubChem BioAssay
